From PubChem BioAssay
E coli growth: E. coli growth inhibition, primary screen, OD600; Escherichia coli growth, 23 h; active compounds read low; OD600 absorbance (concentration not given with the values); 0.21% of 330,000 active; AID 1053175, 2014;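 active = OD600 absorbance below the run mean of sample wells minus 3.6 SD, in any replicate, cut at about 0.56 in these data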;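 also: stock transfer was 300 nL into about 60 µL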
* marks the source's active call; other numbers are inactive results; & = joins results of further samples. Only part of the results is shown. The share of hits here may be higher or lower than overall.

SMILES	E coli growth
O=C(NC(Cc1ccccc1)C(=O)OCc1ccccc1)c1nc[nH]c1C(=O)N1CCN(c2ccccc2)CC1 (centres undefined)	0.74
O=S1(=O)C2CC3C=C[C@@]2(CN1Cc1ccc(F)cc1)O3 (some centres undefined)	0.66
OCCC1CC(O)C(O)[C@@]2(CCc3ccccc3O2)O1 (some centres undefined)	0.69&0.72&0.71&0.7
N#CC(=Cc1ccc(O)c(O)c1)C(=O)c1ccc(O)c(O)c1	0.65
COC1C=CO[C@@]2(C)Oc3c(C)c(O)c4c(O)c(c5c(nc6cc(C)ccn65)c4c3C2=O)NC(=O)C(C)=CC=CC(C)C(O)C(C)C(O)C(C)C(OC(C)=O)C1C (some centres undefined)	0.062*
O=c1cc(C=Cc2ccccc2)oc2c1ccc1ccccc12	0.68
COC(C)(C)[C@]12CC(O)(c3ccccc3)ON1C1CCCCC1N2O (some centres undefined)	0.66
FCCCOc1ccc(C=NOCc2ccc(Cl)cc2Cl)cc1	0.67
O=S1(=O)CCOC2Cc3ccccc3C2N1Cc1cccc(F)c1 (centres undefined)	0.68
CC(=O)OC1C=COC(C)C1OC(C)=O (centres undefined)	0.71
C#CCOCCOCCOCCNc1nc(N2CCN(C(=O)C(CCC(=O)O)n3cc(C(N)Cc4ccc(O)cc4)nn3)CC2)nc(N2CCN(C(=O)C(Cc3cc4ccccc4[nH]3)n3cc(C(N)CC(C)C)nn3)CC2)n1 (centres undefined)	0.67
COCC=CC1=CC2=CC(=O)C(C)(OC(=O)c3cnc4ccccc4n3)C(=O)C2=CN1c1ccc(OC)cc1 (centres undefined)	0.71

The list continues.
SMILES	E coli growth
O=C(Nc1ccc2c(c1)OCO2)OC1CC2CCCC(=O)N3CCC(C1)C23 (centres undefined)	0.67
CC(=O)C1=C(C)N(Cc2ccccc2)C(=O)NC1c1cccc(C(F)(F)F)c1 (centres undefined)	0.69
COc1ccc(C=CC(=O)c2ccc(OC)cc2O)cc1	0.7
CC(C)OC(=O)C(=Cc1ccc2c(c1)c1ccccc1n2C)NC(=O)c1ccccc1	0.69
C=CCC(CC(=O)OC(C)(C)C)C(=O)OCC1CCCN1C(=O)C(CC=C)CC(=O)N(CCO)Cc1ccccc1 (centres undefined)	0.72&0.7&0.7&0.7
COc1ccc(S(=O)(=O)Nc2cccc3c2OC(CN(C)S(=O)(=O)c2ccccc2)C(C)CN(C(C)CO)C3=O)cc1 (centres undefined)	0.68
CCOC(=O)C1C2COc3ccccc3C2N2C(=O)N(c3ccc(Cl)cc3)C(=O)[C@@]12C (some centres undefined)	0.72&0.7
O=C(CC1CC=CCC(Cc2ccc(F)cc2)C(=O)OC(c2ccccc2)CNC1=O)NCCO (centres undefined)	0.64&0.68&0.67
Cc1ccc(O)c(C(=O)C=Cc2ccc3c(c2)OCCO3)c1	0.69
CCN1C(=O)NC(c2cccs2)C(C(=O)OC)=C1C (centres undefined)	0.69
COC(=O)[C@@]12CCCN1C(c1ccc(-c3ccc4c(c3)OCO4)cc1)C1C(=O)N(C)C(=O)C12 (some centres undefined)	0.71
COc1cc(CCCN2C(N)=NCC2c2ccccc2)cc(OC)c1OC (centres undefined)	0.72

(continued)
SMILES	E coli growth
CC[C@@]12C(=O)N(c3cccc(Br)c3)C(=O)N1C(c1ccc(F)cc1)C1C(=O)N(C3CCCCC3)C(=O)C12 (some centres undefined)	0.7
CN(C)S(=O)(=O)c1ccc2c(c1)C(=Cc1cc3c([nH]1)CCCC3)C(=O)N2	0.69
N#Cc1ccc(C23CC4(C2)C(CN(Cc2ccc(-c5ccccc5)cc2)C4c2ccccc2)C3c2ccc(C(F)(F)F)cc2)cc1 (centres undefined)	0.66
CC(C)NC(=O)N(C)CC1Oc2c(NC(=O)c3ccc(-c4nccs4)cc3)cccc2C(=O)N(C(C)CO)CC1C (centres undefined)	0.69
N#CC(=Cc1ccncc1)c1nc2ccccc2[nH]1	0.71
CC(C)CC(NC(=O)c1nc[nH]c1C(=O)NCC(=O)OC(C)(C)C)C(=O)OCc1ccccc1 (centres undefined)	0.7
COc1ccc(OCC(O)CNC(=O)c2cccc3c2C(=O)c2ccc(-c4ccc(F)cc4OCc4ccccc4)cc2S3(=O)=O)cc1 (centres undefined)	0.69
Cc1cccc(NC=Cc2onc(C)c2[N+](=O)[O-])c1	0.71
CCC(C)Sc1ccc(C2N[C@@](C)(C(=O)OC)C3C(=O)N(CC)C(=O)C23)cc1OC (some centres undefined)	0.67
CCN1C(=O)C2C(c3ccc(C)cc3)N3C(=O)N(c4ccc(C)cc4)C(=O)[C@@]3(C)C2C1=O (some centres undefined)	0.65
CC(C)(C)C1COC(=O)CCC=CCC(CC(=O)NC(CO)Cc2ccccc2)C(=O)N1 (centres undefined)	0.7
CC(C)Cc1nn2c(N)c(C=C3C=Nc4ccccc43)c(=O)nc2s1	0.72

New compounds follow:
SMILES	E coli growth
CC(O)C1CNC(=O)C(=O)N1CC1CCCCC1 (centres undefined)	0.68
CCOC(=O)CN1C(=O)NC(c2cccs2)C(C(=O)OC)=C1C (centres undefined)	0.72
CC(C)(C)C1C=C(C(=O)NCc2nc3ccccc3[nH]2)OC(OCCCCO)C1 (centres undefined)	0.63
O=C1NC(Cc2cn(S(=O)(=O)c3ccccc3)c3ccccc23)C(=O)NC1Cc1ccccc1 (centres undefined)	0.67&0.69
CC1CN(C(C)CO)C(=O)c2cc(NC(=O)CCC(F)(F)F)ccc2OC1CN(C)C(=O)NC1CCCCC1 (centres undefined)	0.71
CNC(=O)[C@@]1(Cc2ccccc2)C=CC(C)N1C(C)=O (some centres undefined)	0.68
N#CC(=Cc1ccc(N2CCCCC2)o1)C(=O)Nc1ccc2ccccc2c1	0.79
CC1CN(C(C)CO)C(=O)c2cccc(NC(=O)NC3CCCCC3)c2OC1CN(C)C(=O)Nc1ccccc1 (centres undefined)	0.7
CC(C)n1c(C=Cc2ccccc2)nc2ccccc21	0.67
COc1ccc(C2CC(=O)C=C(c3ccc4ncccc4c3)C2)cc1 (centres undefined)	0.63
O=C1C2C(C=Cc3ccccc3)N3C(=O)CN(CCO)C(=O)[C@@]3(Cc3ccccc3)C2C(=O)N1c1ccccc1 (some centres undefined)	0.7
C#CCOCCOCCOCCNc1nc(N2CCN(C(=O)C(CCCCN)n3cc(CCC(=O)O)nn3)CC2)nc(N2CCN(C(=O)C(C(C)CC)n3cc(CCCCN)nn3)CC2)n1 (centres undefined)	0.64

(cont.)
SMILES	E coli growth
CC(C)CN1CCC(=O)N(C(CO)Cc2ccccc2)CC1 (centres undefined)	0.69
NC(Cc1ccc(Cl)cc1Cl)=NOC(=O)Cc1ccc(Cl)cc1	0.7
CC1CN(C(C)CO)C(=O)c2cccc(NS(=O)(=O)c3ccc(F)cc3)c2OC1CN(C)Cc1ccc(Cl)c(Cl)c1 (centres undefined)	0.68
CCc1cc(Cl)c(OC)c(C(=O)NCC2CCCN2CC)c1O (centres undefined)	0.63
COc1ccc(C2C=C3CN(C(=O)OC(C)(C)C)S(=O)(=O)C3CC2OC(=O)c2cccs2)cc1 (centres undefined)	0.68
CSC(=C[N+](=O)[O-])Nc1ccc(F)cc1	0.7
COc1ccc(S(=O)(=O)Nc2ccc3c(c2)C(=O)N(C(C)CO)CC(C)C(CN(C)CC2CC2)O3)cc1 (centres undefined)	0.68
O=C1NC(Cc2ccccc2)COC(=O)C(Cc2ccc(F)cc2)CC=CCC1CC(=O)N(CCO)Cc1ccccc1 (centres undefined)	0.65&0.7&0.7&0.71&0.72
N#CC(=Cc1ccc(O)c(O)c1)C(=O)Nc1ccccc1	0.65
Cc1ccc(N2C(=O)N3C(c4ccc(F)cc4)C4C(=O)N(C5CCCCC5)C(=O)C4[C@]3(Cc3ccccc3)C2=O)cc1 (some centres undefined)	0.67
O=C1CCN(CCc2ccccc2)CCN1C(CSc1ccccc1)c1ccccc1 (centres undefined)	0.71
O=C(C=Cc1cccc(Cl)c1)OCc1cn2cc(Cl)ccc2n1	0.73

Four entries from above, with each value named:
SMILES: OCCC1CC(O)C(O)[C@@]2(CCc3ccccc3O2)O1 (some centres undefined)
- E coli growth: 0.69&0.72&0.71&0.7

SMILES: N#CC(=Cc1ccc(O)c(O)c1)C(=O)c1ccc(O)c(O)c1
- E coli growth: 0.65

SMILES: COC1C=CO[C@@]2(C)Oc3c(C)c(O)c4c(O)c(c5c(nc6cc(C)ccn65)c4c3C2=O)NC(=O)C(C)=CC=CC(C)C(O)C(C)C(O)C(C)C(OC(C)=O)C1C (some centres undefined)
- E coli growth: 0.062*

SMILES: O=c1cc(C=Cc2ccccc2)oc2c1ccc1ccccc12
- E coli growth: 0.68

Remaining list, next part
SMILES	E coli growth
O=C(C=Cc1ccccc1)NC(=Cc1ccccc1)C(=O)Nc1cccc(C(=O)O)c1	0.72
Cc1cc(C2=CC(=O)CC(c3ccc4c(c3)OCO4)C2)ccc1F (centres undefined)	0.66
COC(=O)C1=C(C)NC(C)=C(C(=O)OC2CCCN(Cc3ccccc3)C2)C1c1cccc([N+](=O)[O-])c1 (centres undefined)	0.72
CC(C)CC1CN=C(Nc2ccccc2)N1CCc1ccc(F)cc1 (centres undefined)	0.69
NC1=NCC(Cc2ccc(O)cc2)N1CCCCC1CCCCC1 (centres undefined)	0.45*
CC=C1COC(C(=O)NCc2ccccc2)(C(F)(F)F)C=C1C=C(C)C (centres undefined)	0.67
O=C(NCc1cccnc1)C1CC=CC2CCN(Cc3ccc(Cl)c(Cl)c3)C(=O)C21 (centres undefined)	0.68
CC(=O)NC1=NC(=O)C(=CN2CCOCC2)S1	0.73
CCOC(=O)CCCCCC(=O)Nc1ccc2c(c1)CC(=O)N(C(C)CO)CC(C)C(CN(C)C(=O)Nc1ccc3c(c1)OCO3)O2 (centres undefined)	0.65
CC(C)C1COCCS(=O)(=O)N1Cc1cccc(Cl)c1 (centres undefined)	0.68
CC1OC(OC2C(=O)c3c(O)cc(O)cc3OC2c2ccc(O)c(O)c2)C(O)C(O)C1O (centres undefined)	0.68
C=CCCC(Cc1ccc(F)cc1)C(=O)OCC(NC(=O)C(CC=C)CC(=O)N(CCO)Cc1ccccc1)C(C)(C)C (centres undefined)	0.7

(continued)
SMILES	E coli growth
CCOC(=O)N1C2=NC(C(=O)OC)=C(C(=O)OC)C3Nc4ccccc4[C@]23CC1C(=O)OC (some centres undefined)	0.68
COc1ccc(C2C=CCN(S(=O)(=O)c3cccc4cccnc34)CC(=O)N2Cc2ccc(F)cc2)cc1 (centres undefined)	0.69
O=C1C=C(c2ccc(-c3ccccc3)c(F)c2)CC(c2ccc3c(c2)OCO3)C1 (centres undefined)	0.77
CC=C(C)C(=O)Nc1cccc(C2=NOC3(C2)CC(C(N)=O)N(C(=O)c2cc([N+](=O)[O-])cc([N+](=O)[O-])c2C)C3)c1 (centres undefined)	0.7
CN1CCN(C(=O)C2=CC(C3CCCCC3)CC(OCc3ccc(CO)cc3)O2)CC1 (centres undefined)	0.7&0.67
CCOC1OC(C(=O)NCc2ccccc2)=CC(c2coc3ccccc3c2=O)C1CCCO (centres undefined)	0.69&0.68
COC(=O)C1=C(C(=O)OC)C2N(C)c3ccccc3[C@@]23CC(C(=O)OC)N(C(=O)COCc2ccccc2)C3=N1 (some centres undefined)	0.65
NC(=O)C1=CC(c2ccc(C(F)(F)F)cc2)CC(OCc2ccc(CO)cc2)O1 (centres undefined)	0.71&0.72
CCCSc1ccc(C2N[C@@](Cc3ccccc3)(C(=O)OC)C3C(=O)N(C)C(=O)C23)cc1 (some centres undefined)	0.66
C[C@]1(C(=O)NCCCNc2ncc(C(F)(F)F)cc2Cl)C=CC(Cc2ccccc2)N1C(=O)c1ccccc1 (some centres undefined)	0.61
COc1cc(C=C2SC(=O)N(Cc3ccccc3)C2=O)ccc1OCc1ccncc1	0.65
C=C1CCN(C(CC(C)C)C(=O)NN2CCOCC2)S(=O)(=O)c2ccccc21 (centres undefined)	0.67

(list continues)
SMILES	E coli growth
CC(C)NC(=O)Nc1cccc2c1OC(CN(C)C(=O)NC1CCCCC1)C(C)CN(C(C)CO)C2=O (centres undefined)	0.71
Cc1ccc(Cl)cc1C1=CC(=O)CC(c2ccc(F)cc2)C1 (centres undefined)	0.7
C[C@@]12C(=O)N(c3cccc(F)c3)C(=O)N1C(c1ccc(Cl)cc1)C1C(=O)N(C3CCCCC3)C(=O)C12 (some centres undefined)	0.7
CCOC(=O)C1C2COc3ccccc3C2N2C(=O)N(c3cccc(F)c3)C(=O)[C@@]12C (some centres undefined)	0.67
CCOC(=O)CC1c2ccc(C(F)(F)F)cc2S(=O)(=O)N1C1CCCC1 (centres undefined)	0.7
CC(=O)Nc1ccc(SC(CCN2CCC(C(C)(C)C)CCC2=O)c2ccccc2)cc1 (centres undefined)	0.67
CCOC(=O)C1C2COc3ccccc3C2N2C(=O)N(c3ccc(C)cc3)C(=O)[C@]12C (some centres undefined)	0.67
C=C1CCN(C(C(=O)NCc2ccco2)C(C)C)S(=O)(=O)c2ccccc21 (centres undefined)	0.65
O=C(O)CC1c2ccc(C(F)(F)F)cc2S(=O)(=O)N1Cc1ccccc1 (centres undefined)	0.65
C[C@@]12C(=O)Nc3ccc(Cl)cc3C(=O)N1C1c3cc(Br)ccc3OCC1C2c1ccccc1 (some centres undefined)	0.71
Cc1cccc(C2C3C(=O)N(Cc4ccccc4)C(=O)C3[C@]3(Cc4ccccc4)C(=O)N(c4ccccc4)C(=O)N23)c1 (some centres undefined)	0.71
CCCCCCSc1ccc(C2C3C(=O)N(C)C(=O)C3[C@]3(C(=O)OC)CCCCN23)cc1OC (some centres undefined)	0.68&0.72
O=C(Nc1nccs1)C1CC=CC2CCN(Cc3ccccc3)C(=O)C21 (centres undefined)	0.63
CCC(C)C1NC(=O)c2cc([N+](=O)[O-])cc(F)c2OCCC(C(N)=O)NC(=O)C(CCCCN)NC1=O (centres undefined)	0.7
